Screens from PubChem.
FGF22 binding: FGF22 (human) thermal shift binding; recombinant FGF22 thermal shift, SYPRO orange fluorescence; percent of sucrose octasulfate shift, DMSO zero; actives 1.5% (n = 340,000); Q9HCT0; calls only at 9.99 µM; AID 651658;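 active = melting point raised past a set limit in the mean and every replicate; inconclusive = no clear call; three in four hits are not shown here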
Target sequence (Q9HCT0 whole entry, looked up): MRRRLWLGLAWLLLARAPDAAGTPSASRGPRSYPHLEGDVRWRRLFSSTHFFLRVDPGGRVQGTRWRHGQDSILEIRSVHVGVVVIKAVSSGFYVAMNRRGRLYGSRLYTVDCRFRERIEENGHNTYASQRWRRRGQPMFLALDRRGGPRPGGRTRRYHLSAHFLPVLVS
AF4-AF9 inh: inhibitors of human MLL-AF4/AF9 interaction | P42568 | AlphaScreen, biotin-AF4 peptide binding to FLAG-AF9 | inhibition, % at 10 µM | actives 0.47% (n = 350,000) | AID 651704;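 active = every replicate reaching a set inhibition limit, whatever the replicate mean, cut at about 25% in these data; inconclusive = mean inhibition reaches that limit but some replicates miss it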;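 also: 0% = plate neutral control median and 100% = total signal loss; the record names both 10 and 1 µM as test concentration; the first replicate is given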
Target sequence (P42568 whole entry, looked up): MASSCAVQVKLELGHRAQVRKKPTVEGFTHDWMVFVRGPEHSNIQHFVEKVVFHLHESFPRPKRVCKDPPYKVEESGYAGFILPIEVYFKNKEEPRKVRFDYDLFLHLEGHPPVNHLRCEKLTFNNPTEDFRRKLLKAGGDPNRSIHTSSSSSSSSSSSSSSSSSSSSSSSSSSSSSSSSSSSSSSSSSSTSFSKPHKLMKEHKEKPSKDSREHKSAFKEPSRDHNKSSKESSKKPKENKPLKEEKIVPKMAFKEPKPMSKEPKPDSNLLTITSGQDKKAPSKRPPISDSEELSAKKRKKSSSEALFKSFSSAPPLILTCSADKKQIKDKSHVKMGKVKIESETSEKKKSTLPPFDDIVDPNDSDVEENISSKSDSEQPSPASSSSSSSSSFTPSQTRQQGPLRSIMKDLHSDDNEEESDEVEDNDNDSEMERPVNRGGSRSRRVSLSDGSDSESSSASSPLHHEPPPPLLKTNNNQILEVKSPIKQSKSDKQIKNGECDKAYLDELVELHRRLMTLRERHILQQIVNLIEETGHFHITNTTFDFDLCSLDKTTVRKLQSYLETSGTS
Ecoli growth: E. coli growth inhibition | AID 1053175 | actives 0.21% (n = 330,000) | OD600 absorbance (no concentration beside the values) | Escherichia coli growth, OD600, 23 h; active compounds read low;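 active = OD600 absorbance below the run mean of sample wells minus 3.6 SD, in any replicate, cut at about 0.56 in these data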;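 also: stock transfer was 300 nL into about 60 µL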
RanGTP-Impb inh: inhibitors of RanGTP-importin-beta interaction, primary screen, biochemical, FRET, CFP-Ran, YFP-importin-beta, homogeneous. cell-free CFP-Ran/YFP-importin-beta FRET ratio. inhibition, % (test concentration not listed). actives 1.1% (n = 300,000);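 active = most replicates above 15%; inconclusive = exactly half above 15%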;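 also: 0% = DMSO wells and 100% = Ran loaded with GDP instead of GTP; wells of about 40 µL received 100 nL stock; the first replicate is given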
Vif A3G: HIV-1 Vif–A3G interaction blockers – biochemical, TR-FRET, GST-Vif 1-94, biotin-A3G peptide, dose response retest, primary screen (AID 1117319); actives 0.57% (n = 260,000); inhibition, %; hits with a dose series show IC50 in µM; TR-FRET GST-Vif / biotin-A3G peptide binding; higher % means a stronger effect; test concentration not given here; strong numbers were not always called active;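 active = above the screen mean plus three standard deviations and confirmed in dose response; inconclusive = results disagree or hit not tested in dose response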;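 also: Vif residues 1-94 fused to GST binding biotinylated APOBEC3G peptide 110-148; 0% = full assay without inhibitor and 100% = GST in place of GST-Vif; retest series ran down from 100 µM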
UCH37 DUB inh: blocks the human deubiquitinase UCH37; purified proteasome/UCH37, Ub-AMC cleavage fluorescence; actives 0.33% (n = 330,000); inhibition, % (concentration not given with the values); AID 588478;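 active = mean of two replicates above 20%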;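 also: 0% = compound-free wells with enzyme and 100% = wells lacking proteasome; stock transfer was 100 nL into about 20 µL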
Target sequence (Q9Y5K5 whole entry, looked up): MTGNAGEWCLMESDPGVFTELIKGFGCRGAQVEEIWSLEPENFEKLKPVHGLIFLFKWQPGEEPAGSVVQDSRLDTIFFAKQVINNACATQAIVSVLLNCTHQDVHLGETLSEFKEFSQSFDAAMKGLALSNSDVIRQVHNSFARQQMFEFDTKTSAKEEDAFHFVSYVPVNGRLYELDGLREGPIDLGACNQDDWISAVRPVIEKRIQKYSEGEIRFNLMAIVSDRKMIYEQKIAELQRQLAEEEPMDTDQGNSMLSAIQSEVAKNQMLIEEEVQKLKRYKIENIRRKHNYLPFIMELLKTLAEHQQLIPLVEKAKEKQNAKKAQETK
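Assay system: Proteasome-bound UCH37. Buffer or medium: pH 7.4 Tris-HCl (50 mM) with ovalbumin, ATP-MgCl2, DTT. Incubation: 30 min preincubation with enzyme, 25 min cleavage at room temperature. Measured by: fluorescence, ex 355 nm, em 460 nm. Read-out basis: percent inhibition. Control set: wells without proteasome as full block, compound-free enzyme plus substrate as uninhibited.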
HNF4A DNA FP: change in binding of human HNF4 alpha to DNA; AID 1224865; actives 0.3% (n = 360,000); HNF4a-FITC DNA binding, fluorescence polarization, 1 h; P41235; activity change, % at 10 µM; in the data active = activity change above about 30%, passing the limit was not always enough;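 also: controls were the assay level and a saturating level of protein; the project sought stronger binding though the title names inhibitors; some compounds called inactive have numbers as strong as hits; positive values seem to mean higher polarization but the record does not say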
* hit, by the source's call; i = inactive; ? = inconclusive; · = not tested or not shown; & = joins results of further samples.

SMILES	FGF22 binding	AF4-AF9 inh	Ecoli growth	RanGTP-Impb inh	Vif A3G	UCH37 DUB inh	HNF4A DNA FP
COc1ccccc1CNC(=O)CCc1cn(C)c2ccccc12	i	1.8	0.7	-0.8	-5%	-0.1	2.8
CCc1cccc(CC)c1NC(=O)COC(=O)c1ccc2c(c1)S(=O)(=O)c1ccccc1C2=O	·	·	0.62	-0.5	10%	1.3	-0.6
COc1ccc(S(=O)(=O)N2CCNCC2)cc1	i	-0.5	·	0.6	13%	·	-1.1
COc1cccc(CNCCNC(=O)c2ccco2)c1OC	·	·	0.7	3.7	-1%	4.8	-0.1
O=C(NCc1ccco1)c1cc(-c2cccnc2)nc2ccccc12	·	·	0.67	-4.7	23%	1.6	3.5
CC(O)[C@H]1CNCCN1CCc1cc(C(F)(F)F)cc(C(F)(F)F)c1 (some centres undefined)	i	-4.1	·	-2.8	·	0.9	0.7
COc1cc(CN2CCN(C3CCC3)CC2CCO)cc(OC)c1 (centres undefined)	i	6.8	0.68	13	2%	0.5	-1.1
Nc1c(C(=O)NC2CC2)c2nc3ccccc3nc2n1-c1ccc2c(c1)OCO2	·	·	0.7	5.7	8%	-13	-5.3
Cc1ccc(C(=O)NNC(=O)c2cc3ccccc3cc2O)cc1	i	-1.3	0.66	-6.9	·	-8.3	-0.4
Cc1ccc(CN2CCCN(Cc3c(F)cccc3Cl)S2(=O)=O)cc1	i	-1.8	0.63	-1.3	1%	2.1	2.6
COc1cc(/C=C(\C#N)C(N)=O)ccc1OS(=O)(=O)c1ccc(C)cc1	i	9.3	0.73	-0.5	·	2.5	-2.1
CC(Sc1nnc(-c2ccccc2F)o1)C(=O)Nc1ccc(N2CCOCC2)cc1 (centres undefined)	i	1.2	0.67	·	8%	1.1	-0.5
CCOc1ccccc1-n1nnnc1SCC(=O)NC(=O)Nc1ccc2c(c1)OCCO2	·	·	0.71	2.0	12%	3.7	-4.5
COc1cccc2c(SCC(=O)N/N=C/c3ccccc3)cc(C)nc12	i	-3.0	·	-1.1	·	·	1.6
Cc1ccc(/C=C/C(=O)O)cc1S(=O)(=O)N1CCc2ccccc21	i	1.2	0.65	-1.7	-12%	1.1	-0.8
COc1cccc(C(C(=O)NC2CCCCC2)N(CC2CCCO2)C(=O)CNC(=O)c2ccco2)c1 (centres undefined)	·	·	0.67	-2.6	-6%	1.1	-0.1
CCOC(=O)COc1nc(-c2ccc(Cl)cc2)cc(-c2ccco2)c1C#N	·	2.0	·	-6.1	10%	·	2.1
CC(C)c1nnc(NC(=O)CCC(=O)NCc2ccco2)s1	·	·	0.7	0.5	68%	1.1	3.0
CCCCC(=O)NN(C)c1nc(-c2ccccc2)nnc1C(F)(F)F	·	·	0.72	2.6	-8%	-3.0	1.9
S=C(Nc1ccccc1Cl)N1CCN(c2ccccn2)CC1	i	-3.8	0.63	1.3	-1%	-0.1	2.9
COC(C(=O)N/N=C(\C)c1ccc(C)cc1)c1ccccc1 (centres undefined)	i	0.6	·	-0.1	-6%	·	-1.0
CCN(CC(=O)NCc1ccc(Cl)cc1)C(=O)c1sccc1C	i	-6.8	0.69	·	·	2.7	2.8
CCN(Cc1nc(-c2ccc(OC)cc2)no1)C(=O)c1ccc2c(c1)OCO2	i	-2.4	0.64	-1.4	·	1.2	-2.4
Cc1ccc(S(=O)(=O)N(CC(=O)O)Cc2ccco2)cc1	·	-1.5	0.69	-8.2	·	0.9	-1.5
CC(=O)Nc1ccc(S(=O)(=O)NCCS(=O)(=O)N2CCN(c3ccccc3)CC2)cc1	i	0.1	0.68	1.2	-4%	6.6	-0.2

Later entries
SMILES	FGF22 binding	AF4-AF9 inh	Ecoli growth	RanGTP-Impb inh	Vif A3G	UCH37 DUB inh	HNF4A DNA FP
COc1ccc(OC(C)C(=O)N(C)Cc2nc(-c3ccc(OC)cc3)no2)cc1 (centres undefined)	i	0.3	0.65	0.2	·	0.5	-1.3
COc1ccc(C(CNC(=O)CN2C(=O)NC(C)(c3ccc4ccccc4c3)C2=O)N2CCCC2)cc1 (centres undefined)	i	5.3	0.69	·	·	3.8	5.0
C/C(=N\O)c1ccco1	i	-12	·	·	·	·	3.0
Cc1ccc(NC(=O)C2CCCN2S(=O)(=O)c2cccc3cccnc23)cc1F (centres undefined)	i	-2.4	0.73	6.2	16%	8.6	-2.4
CN1C(=O)C(O)(CC(=O)/C=C/C=C/c2ccccc2)c2ccccc21 (centres undefined)	·	2.3	·	6.2	·	5.2	-3.1
CCN(CC)CCC(c1cc(OC)c(OC)c(OC)c1)c1c(O)cc(OC)cc1OC (centres undefined)	i	-2.9	0.68	6.4	0%	1.1	3.5
NC(=O)c1ccccc1NC(=O)c1ccccc1Cl	i	-0.7	0.64	-1.7	19%	5.9	-0.2
O=C(Nc1c(-c2ccccc2)[nH][nH]c1=O)c1ccccc1	i	-0.8	·	·	·	·	0.9
CC(C)CNC(=O)CSc1nc2scc(-c3ccccc3)c2c(=O)[nH]1	i	-4.2	0.64	3.5	11%	0.6	4.2
O=C(CSc1nnc(-c2ccccn2)n1Cc1ccccc1)NC1CCCC1	·	·	0.72	0.7	-8%	1.9	0.8
COc1ccccc1C(=O)NCC(=O)N/N=C/c1ccc([N+](=O)[O-])cc1	i	1.9	·	2.5	1%	·	-1.0
OCC1(CO)COC(CCc2ccccc2)=N1	i	0.8	0.69	-2.8	-8%	-0.4	1.4
COC(=O)N/N=C1\CCCc2ccccc21	·	·	·	7.5	7%	·	-0.9
Cc1ccc(-c2csc(NC(=O)c3ccno3)n2)cc1	·	·	0.69	-4.5	19%	4.5	4.1
O=C(NCC1CCCO1)C1CC(=O)N(c2ccc(Cl)cc2)C1 (centres undefined)	i	-8.6	0.68	-0.3	·	5.6	0.8
O=C(Cn1c(-c2ccccn2)nc2ccccc21)NCCN1CCOCC1	·	·	0.73	-0.4	1%	-2.3	1.4
CC(C)(C)C(=O)Nc1ccccc1C(=O)OCC(=O)c1ccc2c(c1)OCCO2	·	·	0.68	-0.4	27%	0.9	-2.2
Cc1ccc(C)c(NC(=O)CN(C)C(C)C(=O)N2CCCC2)c1 (centres undefined)	i	-1.3	0.64	·	11%	-0.8	-0.4
CS(=O)(=O)N1CCc2cc(C(=O)N3CCCC3)ccc21	i	-2.8	0.7	-0.9	-2%	-0.9	3.0
NC(=O)c1ncn([C@@H]2O[C@H](CO)[C@@H](O)[C@H]2O)n1	i	-5.5	·	-1.8	·	4.8	-2.0
Cc1cccc(NC(=O)CN(c2ccc(F)cc2)S(C)(=O)=O)c1	·	-1.0	0.66	1.4	-6%	1.5	-5.6
Cc1cccc(NS(=O)(=O)c2ccc(C)c(C(=O)NCc3cccnc3)c2)c1	i	3.2	0.73	·	-9%	4.6	4.5
CC(=O)c1c(C)[nH]c(C(=O)OCC(=O)Nc2cc(C)on2)c1C	·	·	0.69	?	20%	0.8	-4.3
COc1ccccc1S(=O)(=O)Nc1ccc(-c2nnc3n2CCCCC3)cc1	·	·	0.74	-2.3	-9%	-1.7	-3.3
COc1ccc(C(=O)Nc2ccccc2-c2nnn(CC(=O)N3CCOCC3)n2)cc1	i	-1.9	0.7	-4.9	·	6.6	2.4

Random excerpt: 4 records from the list
SMILES	FGF22 binding	AF4-AF9 inh	Ecoli growth	RanGTP-Impb inh	Vif A3G	UCH37 DUB inh	HNF4A DNA FP
COc1ccccc1C(=O)NCC(=O)N/N=C/c1ccc([N+](=O)[O-])cc1	i	1.9	·	2.5	1%	·	-1.0
O=C(NCc1ccco1)c1cc(-c2cccnc2)nc2ccccc12	·	·	0.67	-4.7	23%	1.6	3.5
Cc1ccc(CN2CCCN(Cc3c(F)cccc3Cl)S2(=O)=O)cc1	i	-1.8	0.63	-1.3	1%	2.1	2.6
Cc1ccc(/C=C/C(=O)O)cc1S(=O)(=O)N1CCc2ccccc21	i	1.2	0.65	-1.7	-12%	1.1	-0.8

The list goes on.
SMILES	FGF22 binding	AF4-AF9 inh	Ecoli growth	RanGTP-Impb inh	Vif A3G	UCH37 DUB inh	HNF4A DNA FP
Cc1ccc(OCCOC(=O)c2cc(S(=O)(=O)N3CCCCC3)ccc2N2CCOCC2)cc1	i	2.9	0.68	·	3%	1.5	1.6
O=C(CCN1C(=O)c2ccccc2S1(=O)=O)Nc1ccc(F)cc1F	i	-17	0.71	-1.9	·	1.4	-3.5
CCn1cc([N+](=O)[O-])c(C(=O)N2N=C(c3cccc4ccccc34)CC2c2ccccc2O)n1 (centres undefined)	·	·	0.74	-0.9	5%	3.6	-1.5
O=C(Cn1ccc2ccccc2c1=O)NCCC(=O)Nc1ccc2c(c1)OCCO2	·	·	0.65	-2.8	-4%&2%	4.6	-2.0
CN1CCN(C(=O)C2CCN(c3ncc(C(F)(F)F)cc3Cl)CC2)CC1	i	0.1	0.68	-5.5	1%	5.6	2.8
CC(C)C(=O)Nc1nc2c(c(=O)[nH]1)CCCC2	·	0.4	0.71	2.8	-4%	-0.1	-2.8
COc1ccc(/C=C(\C#N)C(=O)N2CCOCC2)cc1Br	·	·	0.7	1.7	-7%	6.4	0.6
COc1cc(/C=N/O)cc(Br)c1OCc1cccc(Cl)c1	·	·	·	5.2	14%	·	1.1
CCc1sc(N)nc1-c1ccccc1	i	11	0.63	-2.7	·	1.0	-1.2
Cc1cc(NC(=O)C(C)SCC(=O)OCc2ccc([N+](=O)[O-])cc2)no1 (centres undefined)	i	8.2	0.67	-0.1	-4%	2.2	-1.5
O=C(NNC(=O)c1cccs1)c1ccc(Br)o1	i	-6.8	0.7	·	10%	5.8	-2.2
Clc1cccc(C2CCN(Cc3nc(CC4CC4)no3)C2)c1 (centres undefined)	i	1.7	0.69	2.9	14%	2.4	0.7
Oc1c(Cl)cc(Cl)cc1C=Nc1ccc(Br)cc1	·	·	0.77	-5.2	-14%	0.0	-3.1
Cc1ccc(C)c(CN2CCC(CNC(=O)Nc3ccc(Cl)cc3)CC2)c1	i	2.6	0.57	2.6	0%	6.9	-2.1
Cc1cc([N+](=O)[O-])nn1CC(=O)Nc1nc2ccccc2s1	i	-1.4	0.7	-3.6	·	-1.8	0.1
CCOc1ccc2nc(-c3cc(NC(C)=O)ccc3O)sc2c1	i	1.2	0.71	?	5%	-5.6	0.4
Cc1c(C(=O)Nc2nccs2)sc2nc(-c3cccs3)cc(C(F)(F)F)c12	·	·	0.77	10	-3%&-7%	-31	3.2
O=C(CCc1ccccc1)Nc1ccnn1C1CCN(Cc2ncc[nH]2)CC1	i	-0.5	0.62	3.0	·	-5.8	-2.5
CCN(CC)c1ccc(C(=O)NNC(=O)C2CCN(c3ncnc4sc(C)c(C)c34)CC2)cc1	i	-3.6	·	·	-4%	·	-2.4
Cc1cc(C)nc(Nc2ccccc2Br)n1	·	·	0.66	?	1%	5.8	18
Cc1ccc(N(C)S(=O)(=O)c2ccc3c(c2)CC(C)N3C(=O)C2CC2)cc1 (centres undefined)	i	1.8	0.69	51*	·	1.2	-0.2
O=C(c1ccc(Br)cc1)N1CCN(c2ncccn2)CC1	i	1.2	0.73	-1.6	·	1.0	3.8
CC(=O)Nc1ccc(S(=O)(=O)Nc2ccc(F)c([N+](=O)[O-])c2)cc1	i	-4.3	0.68	-4.9	6%	3.2	4.4
CC(C)C(NS(=O)(=O)c1cccs1)C(=O)N(C)Cc1ccccc1 (centres undefined)	·	·	0.65	2.2	8%	3.1	3.3
CN(Cc1ccccc1)C(=O)c1csc(COCCO)n1	i	-0.4	·	·	·	·	0.6
COc1ccc2cc(C#N)c(Cl)nc2c1	i	-0.3	0.7	1.7	-13%	-59	-1.4
Cc1cc(C(=O)CSc2nnc(-c3ccco3)o2)c(C)n1Cc1ccco1	·	·	0.74	-3.7	2µM*	6.2	-3.9

The list is partial, so the mix of outcomes need not match the whole.
